# D2 agonist: activates the human D2 dopamine receptor. DiscoveRx PathHunter D2 beta-arrestin, luminescence, 90 min; 100% = 57 uM dopamine signal. activation, % (test concentration not listed). 0.084% of 360,000 active. AID 624465; in the data active = activation above about 40%; inconclusive = about 15% to 40%; inactive = below about 15%; note: compound concentration not given in the record; the text of the record calls up to 30% inactive
# Target sequence (P14416 whole entry, looked up): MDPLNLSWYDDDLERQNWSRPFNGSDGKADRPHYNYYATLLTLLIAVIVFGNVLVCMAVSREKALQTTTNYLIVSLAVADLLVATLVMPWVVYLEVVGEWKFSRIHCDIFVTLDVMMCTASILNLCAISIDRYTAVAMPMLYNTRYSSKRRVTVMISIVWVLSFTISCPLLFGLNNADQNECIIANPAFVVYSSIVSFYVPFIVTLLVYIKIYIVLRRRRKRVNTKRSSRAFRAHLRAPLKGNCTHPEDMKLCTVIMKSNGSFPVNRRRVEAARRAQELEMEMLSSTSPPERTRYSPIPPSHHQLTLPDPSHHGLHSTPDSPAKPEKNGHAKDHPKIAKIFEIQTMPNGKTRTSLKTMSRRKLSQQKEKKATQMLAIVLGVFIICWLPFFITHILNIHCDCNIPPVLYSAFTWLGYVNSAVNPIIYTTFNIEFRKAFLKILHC
#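 Agonist mode: compounds alone added to overnight-plated D2 PathHunter cells for 90 min at 37 C, with 57 uM final dopamine (EC100) defining full response. Beta-arrestin recruitment detected by chemiluminescent reagent, read after 1 h at ambient temperature.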
# Sfp PPTase inh: inhibitors of Bacillus subtilis Sfp phosphopantetheinyl transferase; 3.5% of 310,000 active; Potency, µM, for the others: max response, negative = inhibition, usual class: inhibitors; Biochemical Sfp PPTase activity, qHTS; Q9F4F7; AID 1490; active = well fitted inhibition curve with a large enough effect; inconclusive = small, poorly fitted or top-dose-only effect, or another doubt; inactive = no such curve, though single readings can be large or run the other way;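 note: the enzyme is Sfp with the accession as filed and its product quenches rhodamine fluorescence; potency is the fitted concentration of half-maximal effect; 0% = enzyme reaction without inhibitor and -100% = no enzyme wells; top concentration of the series not given in the record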
#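 With Hepes-Na pH 7.6 buffer containing 10 mM MgCl2, Sfp (15 nM) modified BHQ-2-YbbR (12.5 uM) using rhodamine-CoA (5 uM). Two reads 30 minutes apart at 525/598 nm yielded each well's rate.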
# TRPV1 PAM: enhances activation of the human vanilloid receptor TRPV1 | Q8NER1 | potentiation, % at 8.33 µM | TRPV1-expressing cells, Fluo-8 calcium influx, capsaicin EC20 potentiation; host cell line not named in the record; control for the full effect not named in the record | 0.02% of 320,000 active; active means potentiation above 80%; inconclusive means 30% to 80%; inactive means below 30%; note: 0% is about no effect
#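 Fluo-8 calcium influx in TRPV1-expressing cells, kinetic read (ex 480/em 520 nm). Compound added and read 3 min for agonist activity, followed by capsaicin at EC20 final and 2 min further read for enhancement.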
# D2 PAM: positive allosteric modulators of human D2 dopamine receptor | potentiation, % (concentration not given with the values) | DiscoveRx D2 beta-arrestin cells, luminescence, 90 min; 100% = 57 uM dopamine signal | AID 624464 | P14416 | 0.23% of 360,000 active; active = potentiation of 50% or more; inconclusive = 30% to 50%; inactive = 30% or less;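 note: compound concentration not given in the record; tested on top of an EC20 dose of dopamine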
#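 PathHunter D2 cells, attached overnight at 37 deg C, received compound in DMSO plus dopamine at EC20 (50 nM final) for 90 min at 37 deg C. Beta-arrestin recruitment was read as luminescence after 1 h with detection reagent at ambient temperature.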
# CtBP-E1A inh: blocks the CtBP interaction with E1A | AlphaScreen GST-E1A/His-CtBP binding, 1536-well; stronger effect = lower value; control for the full effect not named in the record | activity change, % (no concentration beside the values) | 0.49% of 340,000 active | AID 651724; in the data active means activity change below about -65%; inconclusive means about -30% to -65%; inactive means above about -30%; note: % is set by controls: 0 for no effect and ±100 for the full control effect; compound concentration not given in the record
#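 Steps: dispense buffer (Tris pH 8.0, NaCl 300 mM, TCEP 1 mM, BSA, Tween 20); add 5X protein mix (GST-E1A, His-CtBP, 125 nM each); pin 23 nL compound; 2 h at 37 °C, dark; add 5X beads (50 ug/mL); 1 h; read.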
# Six1-Eya2 blk: blocks human Six1 binding to Eya2; AlphaScreen GST-Six1/His-Eya2 binding, biochemical; stronger effect = lower value; control for the full effect not named in the record; activity change, % (concentration not given with the values); 0.56% of 360,000 active; AID 651725; in the data active = activity change below about -65%; inconclusive = about -30% to -65%; inactive = above about -30%; note: % is set by controls: 0 for no effect and ±100 for the full control effect
#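 AlphaScreen luminescence read after one hour at 37 °C in darkness. Pin-transferred compounds met GST-Six1 and His-Eya2 protein (5X stock 250 nM/500 nM) plus glutathione donor and Ni-chelate acceptor beads (5X, 50 ug/mL).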
# PINK1 expr mod: changes PINK1 expression; PINK1 immunofluorescence, high-content cytometry, 24 h; Potency, µM (top dose mostly 76.6 µM), for the others: at the top dose activation (PINK1 increase), usual class: activators; 0.2% of 410,000 active; active = well fitted activation curve with a large enough effect; inconclusive = small, poorly fitted or top-dose-only effect; inactive = flat fitted curve, though single readings scatter; cell line not stated here;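 note: potency is the fitted concentration of half-maximal effect; % of control where 0% means no effect; nearly all actives have a fitted effect of over 65% in size; a mitochondrial uncoupler was the plate control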
#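 Fluorescence from anti-PINK1 antibody, together with nuclear and cell stains, was scanned on a laser-scanning cytometer. Before staining, stable-line cells were incubated 24 hours with compounds at 5 concentrations; primary antibody 12 h at 10 degrees C.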
# Numbers without * were called inactive; ? = inconclusive; . = not tested or not shown; & = joins results of further samples; [ ] = remark or other dose.
No. | Structure | D2 agonist | Sfp PPTase inh | TRPV1 PAM | D2 PAM | CtBP-E1A inh | Six1-Eya2 blk | PINK1 expr mod
1 | CCCCC1=CC2=C(c3ccco3)C(=O)C(C)(OC(=O)c3ccc(OC)cc3)C(=O)C2=CN1C1CC1 (stereo not drawn) | 1.8 | -4%&-6% | ? | 0 | . | -23 | 5.0%
2 | O=C(NN=C1CCCCCCC1)c1ccc2ccccc2n1 | 5.1 | -6% | -14 | -3 | 6 | 7 | 2.1%
3 | CS(=O)(=O)c1cccc(C(=O)OCC(=O)NCc2cccs2)c1 | -3.2 | . | -1 | 9 | . | 2 | 1.6%
4 | NNc1nc(Nc2ccccc2)nc(Nc2ccccc2)n1 | -4.3 | -15% | -13 | -17 | -9 | -19 | 8.4%
5 | Cc1ccc(Cl)c(N/C=C/C(=O)c2ccccc2)c1 | -1.5 | -23% | -5 | -15 | . | 0 | 0.4%
6 | Cc1cc(O)c(C(C)C)cc1NC(=O)Nc1cc(Cl)ccc1Cl | 2.0 | . | . | -16 | 7 | 3 | 7.1%
7 | O=C(CNC(=O)C1CCCCC1)NCCCO | 0.6 | 1% | -22 | -6 | 0 | 4 | 0.9%[38.3 µM]
8 | CC(=O)Nc1ccc(S(=O)(=O)N(C)CC(=O)OCC(=O)N2CCc3ccccc32)cc1 | -1.5 | 3% | -13 | -6 | 3 | -3 | -1.8%
9 | CNc1c(NS(=O)(=O)c2cc(Cl)ccc2OC)c(=O)oc2ccccc12 | 1.5 | 0% | 5 | 1 | 3 | -3 | 5.8%
10 | CCC(C)n1ncn(-c2ccc(N3CCN(c4ccc(O)cc4)CC3)cc2)c1=O (stereo not drawn) | 9.4 | -26% | 1 | 8 | -1 | -11 | 2.1%
11 | CC1CCN(C(=O)C(=O)c2cn(CC(=O)N3CCCC3)c3ccccc23)CC1 | -3.0 | 5% | -3 | 3 | 8 | 5 | -0.3%
12 | Cc1nccn1Cc1ccccc1 | 2.0 | 5% | 11 | -7 | -1 | 5 | 1.4%
13 | Cc1cc(C)nc(NNC2=CC(=O)CC(C)(C)C2)n1 | -7.8 | 22µM* | -6 | -10 | -1 | 14 | 2.7%
14 | O=C(Nc1cccc([N+](=O)[O-])c1)C1C2CCCCC21 (stereo not drawn) | 4.9 | 4% | -9 | 9 | . | 5 | 4.3%
15 | CC(C)(C)C1CCc2onc(C(=O)NC3CCCC3)c2C1 (stereo not drawn) | 5.9 | 4% | -11 | -4 | 17 | 6 | -2.4%[38.3 µM]
16 | CC(C)(C)c1ccc(C(=O)Nc2cccnc2)cc1 | 0.0 | 10% | 7 | -7 | 0 | 4 | -2.3%
17 | CCOc1ccc(S(=O)(=O)NCCC(=O)NCCCSc2ccccc2)cc1 | -4.4 | . | 14 | 9 | 0 | 1 | -1.0%
18 | CN(CC(=O)Nc1ccc(Cl)cc1)C(=O)Cn1[nH]c(=O)c2ccccc2c1=O | -2.2 | . | 6 | -20 | 3 | 0 | 0.9%
19 | O=C(NCCN1CCOCC1)c1cc2c(=O)n3ccccc3nc2n1Cc1ccccc1 | 0.2 | 16% | -3 | -5 | 4 | -2 | 1.3%[38.3 µM]
20 | O=c1ncccn1C1OC(CO)C(O)C1O (stereo not drawn) | -3.7 | . | . | 1 | 13 | 6 | 0.7%
21 | FC(F)(F)c1cccc(Cc2noc(CN3CCSCC3)n2)c1 | 3.5 | 11% | -14 | 3 | 7 | 4 | 2.6%
22 | O=C(CCN1C(=O)c2ccccc2C1=O)NCCN1CCOCC1 | -3.6 | 3% | -2 | -15 | 4 | 4 | -19%[38.3 µM]
23 | O=C(c1ccccc1)n1c(=O)c(F)cn(COCCBr)c1=O | -2.5 | -9% | 13 | 3 | . | 4 | -0.8%
24 | Cc1oncc1C(=O)Nc1ccc2ccccc2c1 | -2.9 | 6% | -4 | 1 | 4 | 3 | -0.3%
25 | CCOc1ccc(N2C(=O)CC(Sc3nc(C)cc(C)c3C#N)C2=O)cc1 (stereo not drawn) | -3.1 | 3% | -20 | 2 | -7 | -3 | .
26 | CCN(CC(=O)Nc1c(F)cccc1F)C(=O)CC1CCCC1 | -4.2 | . | 1 | -18 | 1 | -3 | -1.3%
27 | COc1ccc(C2(CNC(=O)/C=C/c3ccco3)CCCC2)cc1OC | -0.1 | 22µM* | -22 | -1 | 8 | -7 | 0.2%[38.3 µM]
28 | COc1cc2c(cc1OC)CN(C(=O)CSc1nc(C)cc(C)c1C#N)CC2 | -3.4 | -11% | ? | -11 | -18 | ? | 3.3%
29 | C=CCN1C(=O)c2ccc(C(=O)N(CC)CC(=O)Nc3cc(Cl)ccc3C)cc2C1=O | -6.7 | . | 13 | -35 | ? | 8 | 1.5%
30 | CCOc1ccccc1Nc1ccnc2cc(Cl)ccc12 | 3.5 | 0% | -2 | -20 | 30 | 0 | ?
31 | O=C(COc1cccc(C(F)(F)F)c1)Nc1ccc2[nH]ncc2c1 | 3.9 | 2% | -10 | -15 | . | -5 | 4.3%
32 | Cc1sc2nc(CSCC(=O)Nc3ccc(N4CCOCC4)cc3)[nH]c(=O)c2c1C | -5.3 | ? | . | -5 | -8 | -1 | 3.0%
33 | COc1ccc(NC(=O)NNC(=O)COc2ccc(Cl)cc2C)cc1OC | -5.9 | -25% | -5 | -14 | 2 | -14 | -0.4%
34 | CCc1ccc(C(=O)Nc2ccc3c(c2)n(C)c(=O)n3C)cc1 | 1.1 | ? | -27 | -7 | ? | -15 | 10%
35 | COc1ccc(OCC(=O)NNC(=S)NC(=O)c2ccc(Br)o2)cc1 | -2.5 | 3% | 6 | -4 | -2 | -10 | 3.5%
36 | O=C(COC(=O)c1cccnc1Nc1cccc(C(F)(F)F)c1)NCc1ccc2c(c1)OCO2 | 1.0 | ? | 22 | -1 | 6 | 3 | 5.8%
37 | COC(=O)CN(C#N)c1nc(C)cc(C)n1 | -0.3 | 14% | -3 | -14 | -2 | 2 | 0.0%
38 | CCOC(=O)N1CCN(CC(=O)Nc2ccc(F)cc2)CC1 | 2.0 | 16% | -11 | 3 | 0 | -5 | -1.0%
39 | Cc1cc(C(=O)CN2C(=O)NC3(CCCC3)C2=O)c(C)n1-c1ccc2c(c1)OCO2 | 11 | -1% | 4 | 6 | -7 | -12 | 3.0%
40 | OC1(C(F)(F)F)CC(O)(C(F)(F)F)n2nc(-c3ccccc3)cc2N1 (stereo not drawn) | 0.7 | -4% | 24 | 5 | 8 | -4 | 2.3%[38.3 µM]
41 | COc1ccccc1CCNS(=O)(=O)c1cc2c3c(c1)C(C)C(=O)N3CCC2 (stereo not drawn) | -1.4 | -9% | 10 | -2 | . | 31 | 1.6%
42 | COc1ccc(-n2c(Cc3cccn3C)nnc2SCC(=O)NCc2ccco2)cc1 | -7.0 | -18% | 4 | -6 | -5 | -10 | 0.0%
43 | CC(=O)Nc1ccc(N2S(=O)(=O)c3ccccc3S2(=O)=O)cc1 | -1.0 | 2% | 7 | -3 | 2 | -2 | -0.5%
44 | CCCCCC(=O)N1C[C@H](n2cc(C3CC3)nn2)[C@@H](O)C[C@@H]1c1ccccc1 | -5.2 | . | . | 1 | 4 | 0 | -0.6%
45 | O=C(CSC(=S)N1CCOCC1)Nc1ncc2c(n1)CC(c1ccco1)CC2=O (stereo not drawn) | -4.5 | 1% | -12 | -2 | 7 | 11 | 4.2%
46 | CNC(=O)c1nc[nH]c1C(=O)NC | -1.8 | -22% | -14 | -5 | 1 | 2 | -0.5%
47 | CCOC(=O)CCP(=O)(O)C(C)(O)c1ccccc1 (stereo not drawn) | -0.8 | 13% | -1 | 1 | 8 | 5 | 16%[38.3 µM]
48 | O=C(COc1ccc(Cl)cc1)NNC(=O)c1ccccn1 | 3.1 | 19% | 7 | 5 | ? | ? | 0.7%
49 | Cc1ccccc1NC(=O)Cc1c[nH]c2ccccc12 | 3.5 | 18% | 1 | -2 | . | -9 | -1.3%
50 | O=C(CC(=O)NC1CCCCC1)N/N=C/c1cccc2ccccc12 | -1.5 | 15% | 5 | -4 | -3 | 4 | -1.0%

# Next structures
No. | Structure | D2 agonist | Sfp PPTase inh | TRPV1 PAM | D2 PAM | CtBP-E1A inh | Six1-Eya2 blk | PINK1 expr mod
51 | CCCN(CC1CCCO1)C(=O)CCc1nnc(CCc2ccc(OC)cc2)o1 (stereo not drawn) | 3.6 | 5% | 16 | -10 | -8 | 4 | -0.8%
52 | O=C(Cc1c(F)cccc1Cl)Nc1ccncc1 | 0.8 | 16% | -2 | -3 | 5 | 1 | 1.7%[38.3 µM]
53 | CCC(=O)Nc1c(-c2ccccc2Cl)c(=O)c2ccccc2n1C | -3.9 | 5% | 0 | -5 | . | 4 | 0.7%
54 | Cc1ccc2c(c1)c1c3n2CCN(C(=O)CN2CCN(C)CC2)C3CCC1 (stereo not drawn) | -0.3 | -10% | -6 | 23 | -8 | -20 | -0.1%
55 | c1ccc(COC(CN2CCCCCC2)CN2CCCCCC2)cc1 | 0.0 | 5% | 4 | -13 | . | -6 | -0.2%
56 | COc1ccc(C)cc1NC(=S)N1CCN(c2ncccn2)CC1 | 2.5 | 2% | 2 | -6 | 4 | 3 | 0.2%
57 | CN(C)c1ccc(NC(=O)CCN2CCN(c3ccccn3)CC2)cc1 | ? | -5% | -1 | ? | . | -8 | -0.6%
58 | CC(=O)N(CCN1CCOCC1)Cc1cc2cc3c(cc2nc1Cl)OCO3 | -0.9 | -2% | -13 | 1 | . | 8 | -0.1%
59 | Cc1cccc(CCN(C(=O)c2csnn2)C(C(=O)NC2CCCC2)c2ccco2)c1 (stereo not drawn) | -4.7 | 13% | -12 | -10 | -8 | -6 | -0.4%
60 | C[C@@H]1CN([C@@H](C)CO)C(=O)CCCn2nncc2CO[C@H]1CN(C)Cc1ccc(Cl)c(Cl)c1 | 1.1 | . | . | . | 1 | 0 | 1.1%
61 | CCC1(C)SC(NC(C)=O)=NN1C(C)=O (stereo not drawn) | -2.2 | ? | 3 | -6 | 4 | 9 | -1.3%
62 | CCc1ccc(N2CC(C(=O)NNC(=O)c3ccc(F)cc3)CC2=O)cc1 (stereo not drawn) | -1.7 | . | -2 | -2 | 5 | -1 | -1.4%

# Assay outcomes (PubChem)
